# NPYLR7 ag: agonists of mosquito NPYLR7 receptor, primary screen, cell-based, Aedes aegypti, calcium fluorescence, mosquito biting behavior; Aedes aegypti neuropeptide Y-like receptor 7 (NPYLR7); HEK293T NPYLR7/Galpha15, GCaMP6s calcium fluorescence; activation, % at 10 µM; hit rate 0.15% among 270,000; in the data active = activation above about 40%;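 also: 0% = vehicle and 100% = reference agonist at the receptor; some compounds past the cut are filed as inactive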
# NPYLR7 ag max-min: recorded beside NPYLR7 ag, whose call it bears; activation, %; measured here: Max-Min RFU normalised activation; some inactives read as strong as hits;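 span of the calcium signal over five minutes; 0% = vehicle and 100% = native peptide agonist; compound fluorescence can raise it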
# * marks the source's active call; other numbers are inactive results; & = joins results of further samples. Some of the compounds tested; the hit share may differ from the screen's.
entry	molecule	NPYLR7 ag max-min	NPYLR7 ag
1	CC1(C)CC2=NN(c3ccccc3)P(=O)(OCC3CCCO3)C2=C(N2CCCCC2)C1 (stereo not drawn)	4	6
2	CC1CCCC(NC(=O)c2ccc(-n3nc(-c4cccc(Cl)c4)cc3N)cc2)C1 (stereo not drawn)	-9	-4
3	O=C(NCC1CCCc2ccccc21)c1sccc1S(=O)(=O)N1CCCCC1 (stereo not drawn)	0	1
4	CCCCOc1ccccc1C(=O)N1CCNCC1C(=O)N1CCCC1 (stereo not drawn)	10	11
5	C=CCCC(=O)N1[C@@H](c2ccccc2)[C@@H](C(=O)OCC)C[C@]12CCCCNC2=O	14	3
6	O=C(NC1CCC(n2cnnc2)CC1)c1ccccc1-n1cncn1 (stereo not drawn)	7	9
7	O=C(NCCn1ncccc1=O)c1ccc(Cl)cc1Cl	0	1
8	O=C(CCCNc1ccccc1[N+](=O)[O-])Nc1ccccc1F	-2	-2
9	COc1ccc(CCNC(=O)c2cccnc2N2CCN(C(=O)c3oc4ccccc4c3C)CC2)cc1OC	10	19
10	O=C(c1c(C(F)(F)F)ccc(Cl)c1F)N1CCN(c2nccc(-c3ccc(Oc4ccccc4)cc3)n2)CC1	15	24
11	CN1CC(C(=O)NC(C)(C)c2ccc(Br)cc2)CC1=O (stereo not drawn)	1	3
12	CC(NC(=O)Nc1ccc(F)cc1)c1ccc(C#N)cc1 (stereo not drawn)	0	0
13	Cc1cccc(-c2nnc(SCc3nc4sc(C)c(C)c4c(=O)[nH]3)n2Cc2ccco2)c1	0	3
14	Nc1nc(N2CCCC3CCCCC32)ncc1[N+](=O)[O-] (stereo not drawn)	16	19
15	O=C(NN=Cc1ccco1)c1cc(Br)ccc1O	-11	-7
16	COc1cccc2sc(N(CCCn3ccnc3)C(=O)c3ccc(Cl)s3)nc12	-17	-11
17	CC(=O)C1=C(O)C=C2Oc3c(C(C)=O)c(O)c(C)c(O)c3C2(C)C1=O (stereo not drawn)	1	1
18	CCc1ccc(CNC(=O)c2cc(C)sc2C)s1	7	10
19	CC(C)NC(=O)c1nn(-c2ccc(F)cc2)c2c1CCCC2	4	6
20	COc1cc(/C=N\N=C(N)c2nonc2N)ccc1O	-20	-10

entry	molecule	NPYLR7 ag max-min	NPYLR7 ag
21	CCc1nc2ccc(C(=O)N(C)C(C)C)cn2c1N(CC)Cc1cccc(Br)c1	13	18
22	Cc1ccc(-c2ccc(C(=O)N(C)CC(O)CO)cc2)o1 (stereo not drawn)	7	20
23	O=C1CN(C(=O)C2CCC2)CCN1	-8	-1
24	Cn1ccnc1C(NC(=O)c1cccc(S(=O)(=O)N2CCCCC2)c1)c1ccc(F)cc1 (stereo not drawn)	3	2
25	COc1ccc(C2C(C(=O)OC3CCCCC3)=C(C)NC3=C2C(=O)CCC3)cc1 (stereo not drawn)	3	5
26	O=C(NCCc1ccco1)C1CCCN(c2nc(-c3ccccc3)nc3c2CCC3)C1 (stereo not drawn)	3	5
27	N#Cc1cnn(C(N)=S)c1N	2	3
28	CC(=O)N1CCCN(c2nc3nonc3nc2N2CCCCCC2)CC1	-1	3
29	COc1ccc(OC)c(N2CCN(C(=O)c3ccc(F)cc3)C(C)C2=O)c1 (stereo not drawn)	6	0
30	CCNC(=O)N(C)c1c(CC)nc2ccc(C(=O)N3CCN(c4ccccc4)CC3)cn12	25	3
31	COc1ccccc1-c1coc2c(CN(C)C)c(O)ccc2c1=O	-3	1
32	O=C(CCc1ccccc1)N(CCCN1CCOCC1)c1nc2c(F)cccc2s1	-8	-5
33	CC(C)(NC(=O)c1cccs1)C(=O)NCc1cnn2ccccc12	-6	-1
34	CCc1nc2ccc(C(=O)Nc3ccc4c(c3)OCC(=O)N4)cn2c1N(CC)CC(=O)N(C)C	11	12
35	COc1ccccc1N1CCN(c2cc(C)nc(-n3cc([N+](=O)[O-])cn3)n2)CC1	4	-5
36	O=C1/C(=C/c2ccc(Cl)cc2)C=C(c2ccccc2)N1c1ccc(Br)cc1	-1	-3
37	Cc1ccc(CN(Cc2ccco2)C(=O)c2ccc3c(c2)[nH]c(=O)n3C)s1	11	10
38	CCOC(=O)c1cnn2cc(-n3cc([N+](=O)[O-])cn3)cnc12	-11	-5
39	CC1=C(C(=O)OCCC(C)C)C(c2ccc(C)cc2)NC(=O)N1 (stereo not drawn)	2	3
40	COc1ccc(C(=O)N2CCC3(CC2)OCC(C(=O)O)N3C(=O)c2ccc(F)cc2)cc1OC (stereo not drawn)	17	9

# Part of the list above, with two lines to a compound.
# Fields – NPYLR7 ag max-min	NPYLR7 ag
(6) O=C(NC1CCC(n2cnnc2)CC1)c1ccccc1-n1cncn1 (stereo not drawn)
  7	9
(7) O=C(NCCn1ncccc1=O)c1ccc(Cl)cc1Cl
  0	1
(8) O=C(CCCNc1ccccc1[N+](=O)[O-])Nc1ccccc1F
  -2	-2
(9) COc1ccc(CCNC(=O)c2cccnc2N2CCN(C(=O)c3oc4ccccc4c3C)CC2)cc1OC
  10	19
(10) O=C(c1c(C(F)(F)F)ccc(Cl)c1F)N1CCN(c2nccc(-c3ccc(Oc4ccccc4)cc3)n2)CC1
  15	24
(11) CN1CC(C(=O)NC(C)(C)c2ccc(Br)cc2)CC1=O (stereo not drawn)
  1	3
(12) CC(NC(=O)Nc1ccc(F)cc1)c1ccc(C#N)cc1 (stereo not drawn)
  0	0
(13) Cc1cccc(-c2nnc(SCc3nc4sc(C)c(C)c4c(=O)[nH]3)n2Cc2ccco2)c1
  0	3
(14) Nc1nc(N2CCCC3CCCCC32)ncc1[N+](=O)[O-] (stereo not drawn)
  16	19
(15) O=C(NN=Cc1ccco1)c1cc(Br)ccc1O
  -11	-7
(16) COc1cccc2sc(N(CCCn3ccnc3)C(=O)c3ccc(Cl)s3)nc12
  -17	-11
(17) CC(=O)C1=C(O)C=C2Oc3c(C(C)=O)c(O)c(C)c(O)c3C2(C)C1=O (stereo not drawn)
  1	1
(18) CCc1ccc(CNC(=O)c2cc(C)sc2C)s1
  7	10
(19) CC(C)NC(=O)c1nn(-c2ccc(F)cc2)c2c1CCCC2
  4	6
(20) COc1cc(/C=N\N=C(N)c2nonc2N)ccc1O
  -20	-10

# Continuation:
entry	molecule	NPYLR7 ag max-min	NPYLR7 ag
41	COc1ccc2sc(N(CCCN3CCOCC3)C(=O)c3cc(C)n(C)n3)nc2c1	0	3
42	O=C(CSc1nnnn1-c1ccccc1)c1ccc(F)cc1	-3	3
43	O=C(COc1coc(CN2CCc3ccccc3C2)cc1=O)NCC1CCCO1 (stereo not drawn)	-1	-1
44	c1ncn(C2CCCCC2)c1CN1C[C@@H]2[C@H](C1)[C@H]1CC[C@@H]2O1	1	4
45	Cc1occc1C(=O)Nc1ccc(SC2CCCC2)cc1	4	2
46	Cc1cc(C)nc(NN=CC2=CCC3CC2C3(C)C)n1 (stereo not drawn)	23	-1
47	CCn1cc(S(=O)(=O)N2CCOC3(CNCCOC3)C2)cn1 (stereo not drawn)	10	16
48	CNC(=O)c1c(O)c2ccccc2n(C)c1=O	-10	-2
49	NC(=O)COc1ccc(C(=O)N2CCN(Cc3ccc(C(F)(F)F)cc3)CC2)cc1	17	16
50	COc1ccc(S(=O)(=O)Oc2ccc(CN(Cc3ccc(F)cc3)C(C)=O)cc2)cc1	7	14
51	COc1cc(OC)nc(NC(=O)CN2CCN(Cc3csc(C)n3)CC2)n1	7	6
52	Cc1nn(C)c2sc(C(=O)N3CCN(S(=O)(=O)c4ccccc4)CC3)cc12	-10	-8
53	COC(=O)c1cccc(C2CC(=O)Nc3c2cnn3CC2CCCCC2)n1 (stereo not drawn)	-7	-7
54	O=C(CN1CCN(c2ncccn2)CC1)N1CCCc2c1c(=O)oc1ccc(O)cc21	7	2
55	COCc1nn2c(nnc3c(=O)n(Cc4ccccc4)ccc32)c1-c1ccccc1	3	-1
56	Cn1cc(C(=O)c2cc(Cl)ccc2O)cc1-c1nnc2n1CCC2	1	9
57	CCc1nc2c(OCc3ccc(C(F)(F)F)cc3)cccn2c1N(C=O)Cc1ccc(OC)cc1	-3	-1
58	CC(C)(C)Oc1ccccc1NC(=O)NCc1cscn1	698	-10
59	Cc1ccc2nc(SCCC3OCCO3)nc(=O)n2c1	-1	2
60	CN(CC(=O)N1CC(O)CC1C1CCCCC1)S(C)(=O)=O (stereo not drawn)	1	1

entry	molecule	NPYLR7 ag max-min	NPYLR7 ag
61	O=C(Nc1ncccc1O)C1CC1c1ccccc1Cl (stereo not drawn)	-2	-1
62	COc1ccc(Cc2nnc(NCCc3ccc(OC)c(OC)c3)[nH]c2=O)cc1	11	15
63	CCOC(=O)c1[nH]c(C)c(C(=O)CN(C(=O)C(CC)c2ccccc2)C2CC2)c1C (stereo not drawn)	0	-3
64	CC(C)(C)c1ccc(C2=N/C(=C\C=C\c3ccccc3)C(=O)O2)cc1	-1	-2
65	CC(C)C(=O)Nc1c2c(nn1-c1ccc(Oc3ccccc3)cc1)CSC2	4	-1
66	C=CCN1CC(C(=O)NCc2cccnc2Oc2ccc(C)nc2)CC1=O (stereo not drawn)	-2	-1
67	O=C(COc1ccc(F)cc1)N1CCN(S(=O)(=O)c2cccc(C(F)(F)F)c2)CC1	7	1
68	CN(C)c1ccc(CNC(=O)CCc2n[nH]c(=S)[nH]c2=O)cc1	1	1
69	NC(=O)C1CCN(C(=O)C2C3CCC(C3)C2C(=O)O)CC1 (stereo not drawn)	4	5
70	O=C(Nc1nc2c(s1)CCCC2)c1cccc(CN2CC[C@H](O)C2)c1	-2	-1
71	COc1c(C)cc(C(=O)C2CCCN(Cc3c(C)nn(C)c3Cl)C2)cc1C (stereo not drawn)	-2	1
72	CC(C)c1nc2cc(C(=O)N(C)CCc3nc4ccccc4[nH]3)ccc2o1	1	5
73	O=C(CN1CCCCCCC1)N1CCN(S(=O)(=O)c2ccc3c(c2)OCCCO3)CC1	2	4
74	COc1cccc(CNC(=O)C2CCN(C(=O)CCNC(=O)Nc3ccc(OC(F)F)cc3)CC2)c1	29	18
75	NC(=O)c1cccc(COC(=O)c2ccc3ccc(Cl)cc3n2)c1	-1	1
76	CCC(CC)N(C)C(=O)c1sc(C(C)(C)C)nc1C	5	6
77	COc1cccc(-c2cccc(NC(=O)C3CCN(Cc4ccc(C)s4)CC3)c2)c1	-4	-3
78	COc1cc(C2=N/C(=C\c3ccccc3)C(=O)O2)cc(OC)c1OC	-1	1
79	Cc1ccc(C)c2[nH]c(=O)c(CCNC(=O)c3ccccc3C(F)(F)F)cc12	32	3
80	CCc1[nH]c2ccc(CNS(C)(=O)=O)cc2c1C	5	15

entry	molecule	NPYLR7 ag max-min	NPYLR7 ag
81	CCOc1ncccc1CN1CCCC(C(=O)N2CCC(O)(Cc3ccccc3)CC2)C1 (stereo not drawn)	-8	-4
82	COc1cccc(CC2CN(C(=O)c3c(C)[nH]c4c3C(=O)CCC4)CCO2)c1 (stereo not drawn)	-3	-1
83	CC1(C)CC(=O)C=C(Nc2sc3c(c2C(N)=O)CCCC3)C1	-14	-8
84	O=C(c1cc(-c2ccccc2F)nc2cc(-c3ccccc3)nn12)N1CCCC1	16	13
85	Cc1ccccc1Nc1nc(-c2cnc(N3CCN(C)CC3)nc2C)cc(=O)[nH]1	3	4
86	COCCN1C(=O)COCc2ccc(-c3cccnc3)cc21	1	6
87	Cc1ccc2nc(-c3cc(Cl)ccc3N)c(=O)[nH]c2c1	-1	0
88	CCOC(=O)CCNC(=O)N1CCCC(N2CCN(Cc3ccc4c(c3)OCO4)CC2)C1 (stereo not drawn)	-1&-1	0&3
89	CCc1ccc(C(=O)N2CCN(C(C(=O)NCCOC)C3CCCC3)CC2)cc1 (stereo not drawn)	-11	-8
90	Nc1cccc(Cn2cccnc2=O)c1	9	10
91	C=CCn1cc(CNC(C)c2nc(-c3ccccc3C)no2)c(C)n1 (stereo not drawn)	-7	-3
92	Clc1ccc(CNCc2cn[nH]c2-c2ccc(-c3ccccc3)cc2)s1	3&-4	6&-2
93	CN1CC2(CCN(C(=O)CCC(=O)c3ccc(F)cc3)C2)OC1=O (stereo not drawn)	4	4
94	CCn1c(CC2CCNCC2)nn(CCCn2cccn2)c1=O	1	2
95	CC(C)c1nnc(CCC(=O)N2CC(C)(C)Sc3ccccc32)o1	-1	2
96	CCCc1nc(CN(CC)Cc2ccoc2)no1	-3	-1
97	Cn1cc(-c2noc(-c3n[nH]c(=O)c4ccccc34)n2)cn1	11	14
98	Cc1ccc2nc(NC(=O)/C=C/c3ccc([N+](=O)[O-])cc3)sc2c1	-2	1
99	Cc1nn(Cc2ccc(Cl)cc2)c2sc(C(=O)N3CCNC(=O)C3)cc12	4	7
100	COCc1cccc(C(=O)N2CCN(C(C)C(F)(F)F)CC2)c1 (stereo not drawn)	5	4

entry	molecule	NPYLR7 ag max-min	NPYLR7 ag
101	Cc1[nH]nc2ncc(Br)cc12	2	3
102	CN(Cc1cc2cc(F)ccc2[nH]1)C(=O)c1ccccc1C1CCNC1 (stereo not drawn)	6	6
103	Nc1c(Cl)ccc2c1C(=O)c1ccccc1C2=O	-8	3
104	CCCCCOc1ccc(C(=O)N2CCC3(CC2)OCCO3)cc1OCCCCC	-11	-7
105	CC1CCCCN1c1onc(-c2ccccc2)c1CN(CCN(C)C)C(=O)c1ccc(F)cc1 (stereo not drawn)	3	-3
106	COc1cc(CSc2c(C)cnc3c2c(=O)n(C)c(=O)n3C)cc(OC)c1	12	6
107	C1CCC2(CC1)CCNCC2	-7	-4
108	CCC(C)NC(=O)Cc1csc(NC(=O)CN(C(=O)C2CCCCC2)C2CC2)n1 (stereo not drawn)	-4	-8
109	Cc1cc(C)c(NC(=O)Cn2nc(C)c(S(=O)(=O)N3CCC(C)CC3)c2C)c(Cl)c1	11	7

# Screening results as filed in PubChem.
